# UCH37 DUB inh: inhibitors of human UCH37 deubiquitinase, primary screen, biochemical, Ub-AMC cleavage, fluorescence; Ubiquitin carboxyl-terminal hydrolase isozyme L5 (Homo sapiens), Q9Y5K5; AID 588478, 2011; purified proteasome/UCH37; actives 0.33% (n = 330,000); inhibition, % (test concentration not listed);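 active = mean of two replicates above 20%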;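 note: 0% = compound-free wells with enzyme and 100% = wells lacking proteasome; stock transfer was 100 nL into about 20 µL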
# Target sequence (Q9Y5K5 whole entry, looked up): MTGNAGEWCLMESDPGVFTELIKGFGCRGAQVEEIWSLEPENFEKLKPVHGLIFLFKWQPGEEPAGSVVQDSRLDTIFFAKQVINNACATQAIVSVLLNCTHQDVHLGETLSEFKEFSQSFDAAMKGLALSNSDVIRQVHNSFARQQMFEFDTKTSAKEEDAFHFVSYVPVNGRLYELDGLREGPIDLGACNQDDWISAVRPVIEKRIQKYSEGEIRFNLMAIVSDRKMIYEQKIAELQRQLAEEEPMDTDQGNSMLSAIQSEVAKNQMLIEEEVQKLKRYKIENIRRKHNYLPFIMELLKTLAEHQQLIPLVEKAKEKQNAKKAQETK
#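 system = Proteasome-associated human UCH37 deubiquitinase | amount = 0.15 nM proteasome as dispensed | medium = pH 7.4 Tris-HCl (50 mM) with ovalbumin, ATP-MgCl2, DTT | incubation = 30 min preincubation with enzyme, 25 min cleavage at room temperature | detection = AMC fluorescence 355/460 nm | read-out basis = percent inhibition | controls = no-proteasome and no-compound wells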
# E coli growth: E. coli growth inhibition, primary screen, OD600; OD600 absorbance (test concentration not listed); AID 1053175, 2014; actives 0.21% (n = 330,000); Escherichia coli growth, 23 h; stronger effect = lower value;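 active = OD600 absorbance below the run mean of sample wells minus 3.6 SD, in any replicate, cut at about 0.56 in these data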;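 note: stock transfer was 300 nL into about 60 µL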
# An asterisk follows results filed as active. Some of the compounds tested; count on the stated rates, not on these rows.
compound	UCH37 DUB inh	E coli growth
Cc1ccc(-n2[nH]c(C)c(C=Nn3c(C)nc4ccccc4c3=O)c2=O)cc1	0.5	0.68
Cc1ccsc1C=NNC(=O)Cc1cc(=O)[nH][nH]1	5.2	0.72
CC(=NO)C(=O)Nc1ccccc1	3.1	0.64
S=c1[nH]nc(-c2cc(-c3ccccc3)n[nH]2)n1N=Cc1ccc(Br)s1	5.3	0.68
OCc1nc2ccccc2n1N=Cc1cccs1	5.8	0.64
O=C1Nc2ccccc2C1=NN=CC1=C(N2CCOCC2)/C(=C\c2ccccc2)CC1	6.7	0.74
COc1ccc(C(=O)NCC(=O)NN=Cc2c(C)[nH]c3ccccc23)cc1OC	7.0	0.64
O=C(NN=Cc1ccncc1)C1CC1C(=O)NN=Cc1ccncc1 (stereo unspecified)	4.0	0.69
CC1=CCC(C(C)(C)NC(=O)c2ccccc2)CC1=NO (stereo unspecified)	-0.2	0.76
C[N+](C)(C)CCCCCC(=O)C=NO	3.9	0.7
CCOc1cc(C=NNc2ccc([N+](=O)[O-])cc2)ccc1OCC(=O)Nc1ccc(C)c(C)c1	-1.8	0.84
NC(=NOCc1cccc([N+](=O)[O-])c1)c1nonc1N	2.3	0.64
CC(NC(=O)C(=O)NN=Cc1cccc([N+](=O)[O-])c1)c1ccccc1 (stereo unspecified)	-0.6	0.7
O=C(O)c1ccc(C=NNc2ccc(C(F)(F)F)cn2)cc1	7.7	0.71
COc1cc(-c2noc(CCC(N)=O)n2)cc(OC)c1OC	-0.2	0.68
CC(=O)Nc1sc(NN=Cc2ccccc2F)nc1-c1ccc(C)cc1	-0.8	0.63
CC(CC(=O)NC(C)(C)C)=NNC(N)=S	-1.2	0.69
COC(=O)NN=Cc1cn(CCOc2ccccc2)c2ccccc12	2.2	0.62
CCOc1cc(C=NNC(=O)c2cccnc2)ccc1OCc1ccc(C(=O)OC)o1	5.7	0.69
Cc1c(C=NNC(=O)c2ccc(Br)o2)cnn1C	4.6	0.62
CCN(CC)CCN1C(=O)C(=O)/C(=C(/O)c2ccc(C)cc2)C1c1ccncc1 (stereo unspecified)	0.1	0.77
Cc1c(C(Cc2ccccc2)=NO)c2ccccc2n1C	0.3	0.75
O=C(NN=Cc1cccc([N+](=O)[O-])c1)c1ccc2nc[nH]c2c1	4.2	0.72
CCc1n[nH]c(=S)n1N=Cc1ccc(NC(C)=O)cc1	7.8	0.68
COc1ccc(C=NNC(=O)c2cccnc2)c(C(=O)O)c1OC	9.5	0.68
N=c1oc2ccccc2cc1C(=O)NN=Cc1ccccc1	4.4	0.72
CNC(=S)NN=C(C)c1ccc(Cl)c(Cl)c1	1.6	0.69
CN(C)N=Cc1ccc(Sc2ccc([N+](=O)[O-])cc2[N+](=O)[O-])o1	3.3	0.71
Cc1ccc(N2CCN(N=CC3=C(N4CCOCC4)/C(=C\c4ccccc4)CC3)CC2)cc1	-3.1	0.74
Clc1ccc(-c2csc(NN=Cc3cccnc3)n2)c(Cl)c1	-8.8	0.7
Cc1nn(C)cc1C=NNC(=O)Cn1nccc1C	1.6	0.7
COc1ccc(C(C)=NNC(=O)c2nc(C)cc(C)n2)cc1	3.7	0.7
NC(=O)C(=O)NN=Cc1c(F)c(F)c(F)c(F)c1F	5.9	0.72
CCc1cc(CC)c(C=NNC(N)=O)c(CC)c1C=NNC(N)=O	2.7	0.69
CC(=O)C(=NNc1ccc(Br)cc1)Sc1cccc2cccnc12	6.8	0.76
O=c1c2cc(-c3ccccc3)sc2ncn1N=Cc1ccco1	1.7	0.66
CC(=NOC(=O)c1ccccc1)c1c(C)nc2cc(C)ccn12	0.5	0.67
CN(Cc1c(C(=O)NN=Cc2cccc(Cl)c2)nnn1-c1nonc1N)c1ccccc1	5.2	0.66
COc1cccc(NN=Cc2cccc(Br)c2O)c1	-0.4	0.62
Cc1cccc(NC(=O)C2Cc3ccccc3OC2=NO)c1 (stereo unspecified)	4.6	0.7
Cc1ccc(CSc2nnc(SCC(=O)NN=C/C=C/c3ccco3)s2)cc1	3.1	0.74
Cc1ncc([N+](=O)[O-])n1CC(=O)NN=Cc1ccc(F)cc1	2.4	0.59
O=C(COc1ccccc1-c1ccccc1)NN=Cc1ccc2ccccc2c1	0.1	0.66
S=c1[nH]nc(-c2ccccn2)n1N=Cc1c(Cl)cccc1Cl	6.0	0.64
CC(=NNC(=O)c1ccc(CSc2nncn2C)cc1)c1cccs1	6.5	0.62
COc1cccc(C=NNC(=O)CC(=O)NCCc2ccc(OC)c(OC)c2)c1	2.5	0.7
COc1cccc(C=NNC(=O)C(=O)N2CCCCCC2)c1O	3.5	0.69
Oc1ccccc1C=NNc1nc2ccccc2o1	0.5	0.68
CCCCCCN=C1CC(C)(C)CC(=O)/C1=C(\O)CCC	3.6	0.69
Cc1nc2ccccc2n1N=Cc1ccc([N+](=O)[O-])o1	10	0.29*
C(=NNc1ccc2nncn2n1)c1ccco1	12	0.66
CC(=NNC(=O)C(N)=O)c1ccc2c(c1)OCCO2	-2.2	0.66
COc1cc(C=NOCC(=O)Nc2cc(C)cc(C)c2)ccc1OCc1ccc(Cl)cc1	-0.3	0.74
CN(C)c1ccc(C(=O)NN=Cc2cc(Br)cc(Br)c2O)cc1	4.6	0.71
O=C(NN=Cc1ccc2nccnc2c1)c1ccccc1O	9.0	0.62
O=C(NN=Cc1ccccc1)c1sccc1-n1cccc1	2.7	0.8
CC(CC(=O)Nc1cccc(C(F)(F)F)c1)=NNC(=O)Cc1ccccc1	1.5	0.6
COc1ccc(C=NNC(=O)c2ccc(F)cc2)cc1COc1cc(F)ccc1[N+](=O)[O-]	4.4	0.71
COCc1c(Br)c(C)nc(OCC(=O)NN=Cc2ccco2)c1C#N	1.5	0.67
COc1cc(C(C)=NNC(=O)CN2CCN(S(=O)(=O)c3ccc(C)cc3)CC2)ccc1O	2.4	0.68

# The listing continues.
compound	UCH37 DUB inh	E coli growth
COc1ccc2nc(C=NNC(=O)CCCCCNC(=O)OC(C)(C)C)ccc2c1	-142	0.68
O=C(NN=Cc1ccccn1)c1cc([N+](=O)[O-])cc([N+](=O)[O-])c1	4.8	0.64
O=C(COc1cccc(Br)c1)NN=C1CCSC1	0.9	0.7
N#CC(=C(O)COC(=O)CCc1ccc(S(=O)(=O)N2CCOCC2)cc1)c1nc2ccccc2[nH]1	-8.5	0.74
Cc1cccc(OCC(=O)NN=Cc2ccc(N(C)C)cc2)c1	-212	0.7
CC(=NNC(=O)CNC(=O)c1ccccc1Br)c1ccco1	3.5	0.64
CC(=NNC(=O)COc1ccccc1[N+](=O)[O-])c1cccc(NC(=O)c2ccncc2)c1	2.7	0.72
CCOc1ccc(-c2c(C(=O)NN=Cc3ccc(C)cc3)nnn2-c2nonc2N)cc1	2.2	0.64
CCCCC#Cc1cncc(C(=O)NN=Cc2cccc(OC)c2)c1	3.0	0.63
C=C(C)CNC(=S)NN=C(C)c1cccc(NC(C)=O)c1	6.2	0.71
O=C1C2C3C=CC(CC3)C2C(=O)N1N=Cc1ccc(O)c(O)c1 (stereo unspecified)	1.2	0.73
COc1ccc(C(C)=NNc2ncc(Cl)cc2Cl)c(O)c1	-14	0.63
CC(C)(C)OC(=O)NN=Cc1c[nH]c2ccccc12	4.2	0.72
COc1ccc(C=NNS(=O)(=O)c2ccc(Cl)cc2)cc1COc1ccccc1[N+](=O)[O-]	3.2	0.79
CC(C)[C@@H](N)C(=O)NN=Cc1ccc2ncccc2c1	2.3	0.66
COC(=O)c1ccccc1NC(=O)CSc1nnc(-c2ccc(C)cc2)o1	2.9	0.66
CC(C)(C)NC(=S)NN=Cc1cccnc1	2.7	0.72
O=C(COc1ccccc1)NCC(=O)NN=Cc1ccccc1	6.1	0.72
COc1ccc(C=NNc2nncc3ccccc23)cc1	5.6	0.65
CC1=CC=CC2=NC(=NS(=O)(=O)c3ccc(F)cc3F)c3ccccc3CN12	-0.3	0.67
COc1ccccc1/C=C/C=NNC(=O)CCn1nnc2ccccc21	3.5	0.63
CCOC(=O)C1(CCC(C)=NNC(N)=O)CC(C)OC1=O (stereo unspecified)	1.7	0.63
CC(=NNC(=O)c1cccc(S(=O)(=O)N2CCCC2)c1)c1ccco1	1.3	0.65
O=C(NN=Cc1ccc([N+](=O)[O-])o1)c1cc2ccccc2o1	9.4	0.55
NC(=NN=Cc1cccs1)SC1CC(=O)N(c2cccc([N+](=O)[O-])c2)C1=O (stereo unspecified)	3.5	0.7
O=C(CCC(=O)Nc1ccc(F)cc1)NN=Cc1ccc(F)cc1	4.8	0.63
CC(/C=C/c1ccccc1)=NNC(=O)c1cc([N+](=O)[O-])cc([N+](=O)[O-])c1	2.9	0.7
CCCCCCCCSc1nnc(N=CN(C)C)s1	3.8	0.69
COc1cccc2cc(C(=NO)c3ccc(Br)cc3)oc12	4.4	0.69
O=C(CNc1n[nH]c(=O)[nH]c1=O)NN=Cc1ccccc1	1.4	0.66
CC(=O)c1ccc(NC(=O)CON=C(C)c2cccs2)cc1	2.8	0.7
CC(=NO)c1c(O)c(C)c(-c2ccccc2)n(-c2ccccc2)c1=O	5.1	0.67
CCOC(=O)c1sc(S(C)(=O)=O)c2c1CC(C)(C)CC2=NO	3.7	0.64
CC(=O)Nc1cccc(C(=O)NN=Cc2ccc(C)o2)c1	7.5	0.69
COc1ccc(/C=C/C(=O)NCC(=O)NN=C(C)c2ccco2)cc1	3.7	0.58
Cc1ccc(C(=O)NN=Cc2ccc(OC(=O)c3cccs3)cc2)cn1	-2.5	0.75
Oc1cccc(C=NNC(=S)Nc2cccnc2)c1O	5.0	0.65
CC(=NNc1ccc(Cl)c(Cl)c1)c1ccc(-n2ccnc2)cc1	4.9	0.66
COc1cccc(C=NNc2ncnc3scc(-c4ccccc4)c23)c1O	-10	0.71
Cc1onc(-c2ccccc2)c1C(=O)NN=Cc1c[nH]c2ccccc12	1.6	0.68
COc1ccc(C=c2sc3nc(-c4ccccc4)c(-c4ccccc4)n3c2=O)cc1	10	0.72
NC(=O)c1cc2ccccc2oc1=NNC(=O)c1ccccc1O	2.1	0.63
CCc1ccc(C=NNC(=O)c2c[nH]c3ccccc23)s1	5.5	0.64
CCOC(=O)c1sc(SC)c2c1CCCC2=NOC	5.0	0.66
Cc1ccc(-n2c(SCC(=O)NN=C/C=C/c3ccccc3[N+](=O)[O-])nc3ccccc3c2=O)cc1	-0.5	0.73
COc1cc(C=NNC(=O)c2cccc3ccccc23)cc(OC)c1OC	-38	0.75
COc1ccc(OC)c(C=NNC(=S)NCCc2ccccc2)c1	-48	0.69
CC(=NNC(=O)c1ccco1)c1cccc(NC(=O)c2ccc(C)o2)c1	2.5	0.69
CCN(CC)c1ccc(C=NN2C(=O)c3ccccc3C2=O)c(O)c1	1.8	0.69
CC(C)(C)NC(=O)CCN(N=Cc1ccncc1)C1=NS(=O)(=O)c2ccccc21	9.6	0.65
CC(C)(C)C(=O)ON=C1C(=O)N(c2ccccc2)c2ccccc21	1.4	0.67
COc1cccc(C=Nn2nnnc2N)c1OCC#N	-14	0.71
CCNc1nc(NCC)nc(NN=Cc2ccc(OC)cc2)n1	2.9	0.66
O=C(NN=Cc1c(F)cccc1Cl)c1ccc(Cn2cc(Br)cn2)o1	-0.2	0.65
CCCCOc1ccc(CNC(=S)NN=Cc2ccc(OC)c(OC)c2)cc1	4.7	0.74
Cc1ccccc1C(=O)Nc1cccc(C(=O)NN=Cc2ccccn2)c1	-1.1	0.69
CCCC(=O)NN=C1CS(=O)(=O)N(C)c2ccsc21	7.4	0.66
Cc1cccc(C)c1NC(=S)NN=Cc1ccccc1C(=O)O	0.8	0.72
COc1cccc(C=NNc2nc3ccccc3[nH]2)c1O	5.0	0.67
